Source: PubChem BioAssay
Menin-MLL FL inh – menin-MLL binding inhibition, fluorescein peptide | AID 1766 | 290,000 tested, under 10 active | FP activity change, % at 61.4 µM | Fluorescence polarization, fluorescein-MLL peptide displacement from menin; inconclusive = falling polarisation curve, or a change in total fluorescence; inactive = total fluorescence flat and polarisation flat or rising; no compound was filed as active; the % refers to the polarisation; negative = inhibition;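 also: % of control where 0% means no effect; inhibitors lower the polarisation; unlabelled MLL peptide was the positive control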
D2 PAM – potentiates the human D2 dopamine receptor allosterically; potentiation, % (concentration not given with the values); P14416; AID 624464; DiscoveRx D2 beta-arrestin cells, luminescence, 90 min; 100% = 57 uM dopamine signal; 360,000 tested, 0.23% active; active = potentiation of 50% or more; inconclusive = 30% to 50%; inactive = 30% or less;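 also: compound concentration not given in the record; tested on top of an EC20 dose of dopamine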
Target sequence (P14416 whole entry, looked up): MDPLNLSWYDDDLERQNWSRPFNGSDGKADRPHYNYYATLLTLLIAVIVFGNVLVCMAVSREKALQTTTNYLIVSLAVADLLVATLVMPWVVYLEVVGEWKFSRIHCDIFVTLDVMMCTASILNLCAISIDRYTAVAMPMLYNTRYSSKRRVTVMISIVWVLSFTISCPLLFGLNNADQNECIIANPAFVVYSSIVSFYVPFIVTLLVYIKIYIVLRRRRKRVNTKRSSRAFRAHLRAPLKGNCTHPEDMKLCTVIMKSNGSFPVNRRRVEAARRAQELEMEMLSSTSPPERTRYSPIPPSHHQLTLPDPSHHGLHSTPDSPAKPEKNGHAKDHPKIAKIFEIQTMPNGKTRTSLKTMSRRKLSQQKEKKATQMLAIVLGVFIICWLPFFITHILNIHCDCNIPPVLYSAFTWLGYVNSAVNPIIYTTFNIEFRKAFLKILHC
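D2 cells co-treated with compound plus 50 nM dopamine (EC20) for 90 min at 37 deg C to detect potentiation. Beta-arrestin recruitment was read as enzyme-fragment luminescence after 1 h at ambient temperature. Full response was set by 57 uM dopamine.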
ClpP mod – qHTS Assay for Activators of ClpP; Potency, µM (top dose mostly 57.5 µM), inactives show at the top dose activity change, negative = active; purified B. subtilis ClpP, FRET peptide cleavage, 20 min; 340,000 tested, 1.9% active; active = well fitted falling curve with a large enough effect; inconclusive = small, poorly fitted or top-dose-only effect; inactive = no such curve, though single readings can be large or run the other way; also: potency is read from the fitted curve at half-maximal effect; the source files actives as falling curves though it sought activators and does not explain the sign; nearly all actives have a fitted effect of over 65% in size; many hits overshoot -100%
Target sequence (P80244 whole entry, looked up): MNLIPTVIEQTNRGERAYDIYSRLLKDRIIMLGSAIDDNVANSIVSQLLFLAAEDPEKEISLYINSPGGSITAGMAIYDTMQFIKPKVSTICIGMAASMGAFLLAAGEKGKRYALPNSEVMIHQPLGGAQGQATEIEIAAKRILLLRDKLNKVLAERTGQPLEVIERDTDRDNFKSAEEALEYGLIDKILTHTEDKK
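Buffer: 100 mM Tris/HCl pH8, 100 mM KCl, 0.05% low protease BSA, 2.5% glycerol, 0.01% Tween-20. ClpP 10 microg/mL final; 20 min RT; delta FRET normalized to ADEP and DMSO controls.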
gsp ag – activates gsp, the McCune-Albright syndrome mutation; gsp mutant cells, cAMP HTRF, 30 min; control for the full effect not named in the record; Potency, µM (titrated, usually from 76.9 µM), for the others: top-dose activation (cAMP increase), usual class: activators; 340,000 tested, 0.13% active; AID 624287; active = well fitted activation curve with a large enough effect; inconclusive = small, poorly fitted or top-dose-only effect, or another doubt; inactive = no such curve, though single readings can be large or run the other way; cell line not stated here;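 also: phosphodiesterase inhibitor Ro 20-1724 added with compounds to block cAMP breakdown; potency is read from the fitted curve at half-maximal effect; nearly all actives have a fitted effect of over 60% in size; about a fifth of the inactives were tested at one dose only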
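Cells stably selected in G418 were plated at 2000/well, grown 16-24 hr, then given compounds in DMSO with the PDE inhibitor […] (300 uM solution added) for 30 min at 37C; cAMP was read by HTRF.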
Sfp PPTase inh – Sfp phosphopantetheinyl transferase inhibition; Q9F4F7; Biochemical Sfp PPTase activity, qHTS; Potency, µM, inactives show max response, negative = inhibition, hits mostly inhibitors; 310,000 tested, 3.5% active; AID 1490; active = well fitted inhibition curve with a large enough effect; inconclusive = small, poorly fitted or top-dose-only effect, or another doubt; inactive = no such curve, though single readings can be large or run the other way;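 also: the enzyme is Sfp with the accession as filed and its product quenches rhodamine fluorescence; potency is read from the fitted curve at half-maximal effect; 0% = enzyme reaction without inhibitor and -100% = no enzyme wells; top concentration of the series not given in the record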
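Reaction rates are the 30-min fluorescence difference (ex 525, em 598 nm) in wells containing 15 nM Sfp, 5 uM rhodamine-CoA and 12.5 uM BHQ-2-YbbR at pH 7.6 with 10 mM MgCl2.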
TRPV1 PAM – human TRPV1 potentiation | AID 540277 | 320,000 tested, 0.02% active | TRPV1-expressing cells, Fluo-8 calcium influx, capsaicin EC20 potentiation; host cell line not named in the record; control for the full effect not named in the record | potentiation, % at 8.33 µM | Q8NER1; active means potentiation above 80%; inconclusive means 30% to 80%; inactive means below 30%; also: 0% is about no effect
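Fluo-8 calcium influx in TRPV1-expressing cells, kinetic read (ex 480/em 520 nm). Compound added and read 3 min for agonist activity, followed by capsaicin at EC20 final and 2 min further read for enhancement.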
gsp antag – gsp mutant antagonism; 340,000 tested, 0.4% active; gsp-mutant cells, cAMP HTRF, 30 min; control for the full effect not named in the record; Potency, µM (titrated, usually from 76.9 µM), for inactives: top-dose activity change, negative = inhibition, usual class: inhibitors; active = falling curve of any shape with a large fitted effect; inconclusive = falling curve, mostly with a smaller effect; inactive = flat or rising curve; cell line not stated here;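 also: intracellular cAMP measured with PDE inhibitor Ro 20-1724 present during compound exposure; potency is read from the fitted curve at half-maximal effect; % is scaled to controls: 0 for no effect and ±100 for the full control effect; nearly all actives have a fitted effect of over 65% in size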
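Cells, 2000/well, grown 16–24 h in DMEM 10% FBS with 0.5 mg/ml G418, then compounds plus […] (300 uM addition stock), 30 min at 37C. cAMP read by HTRF (cAMP-d2 and anti-cAMP antibody-K in lysis buffer) after 30 min RT.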
* marks the source's active call; other numbers are inactive results; u = inconclusive; x = no result given; & = joins results of further samples; [ ] = remark or other dose.

SMILES	Menin-MLL FL inh	D2 PAM	ClpP mod	gsp ag	Sfp PPTase inh	TRPV1 PAM	gsp antag
COc1cccc(/C(O)=C2\C(=O)C(=O)N(c3ccccn3)C2c2cccc(OC)c2OC)c1 (stereo unspecified)	0.3	-10.0	0.3%	-1.8%	-5.0%	-3.5	10.8%
Cc1cccc(C)c1NC(=O)CNC(=O)Cc1c[nH]c2ccccc12	x	-37.8	0.7%	-4.1%[15.4 µM]	x	u	-1.4%
CCc1c(C(=O)NCc2cnn(C)c2)csc1C	-2.0	0.5	0.6%	u	u	-1.4	2.2%
COc1ccccc1CNC(=O)C1CCN(S(=O)(=O)N2CCCCC2)CC1	1.5	7.4	0.0%	-7.0%	-0.1%	-10.8	-10.6%
COc1ccc(NC(=S)N2CCC(C(O)(c3ccccc3)c3ccccc3)CC2)cc1	0.4	-17.8	1.2%	-18.9%	7.1%	-0.2	u
Cc1n[nH]c(C)c1N1C(=O)c2cccc3c(N4CCCCCC4)ccc(c23)C1=O	u	-8.3	-0.5%	15.5%	-17.9%	-8.9	u
C=CCNC(=O)c1ccc(C)c(Br)c1	3.7	-6.7	-20.0%	-37.1%[inhibitor]	-1.3%	-7.0	0.9%
O=C(CNC(=O)c1ccccc1)OCc1ccc([N+](=O)[O-])cc1	1.1	-7.4	4.8%	-1.2%	11.0%	-8.4	9.8%
COc1cc(CSC)nc(-c2ccccc2)n1	1.8	0.5	x	14.1%[15.4 µM]	14.5%	0.8	-7.6%
Cc1ccc(C(CNC(=O)c2ccc(Br)o2)N2CCN(C)CC2)cc1 (stereo unspecified)	x	-32.6	0.5%	12.7%	x	7.7	14.7%
CCOC(=O)c1ccc(CNC(=O)Cn2nnc(-c3ccc(C)cc3)n2)o1	-0.8	-0.3	0.1%	-15.4%	9.8%	-2.1	13.0%
Nn1c(=S)[nH]nc(Cc2ccc(O)cc2)c1=O	0.1	-4.7	0.1%	2.6%[15.4 µM]	15.8µM*	-6.9	-0.6%
Cc1ccc2c(c1)c1c(n2CC(O)Cn2c(C)nc3ccccc32)C(=O)CCC1 (stereo unspecified)	-0.2	-3.6	u	-13.5%	-12.9%	6.2	2.4%
O=C(Cn1c(-c2ccccc2)c[n+]2ccsc12)c1ccc(Br)cc1	3.8	10.3	x	-10.4%[15.4 µM]	13.0%	1.6	9.6%
Cc1ccc(NC(=O)CCN2C(=O)CSC2=O)c(C)c1	-4.0	-8.6	68.3%	-27.7%	11.5%	-11.6	-6.2%
CCc1ccccc1NC(=O)COc1ccc(N2CC(C(N)=O)CC2=O)cc1 (stereo unspecified)	-2.0	-6.6	x	0.4%	16.0%	-2.7	3.7%
COCCNC(=O)C(=O)N/N=C(\C)CC(=O)Nc1ccc(Cl)cc1Cl	0.7	-15.5	28.2µM*	-18.1%	-0.8%	5.4	-0.5%
CCC(CC)NCc1ccc(OC)cc1OC	-1.4	-11.2	-0.4%	u	9.1%	4.0	-8.3%
O=[N+]([O-])c1cc(S(=O)(=O)NCCCN2CCOCC2)ccc1Cl	7.3	-20.9	-4.1%	-8.4%[15.4 µM]	4.2%	-2.5	9.3%
O=C(/C=C/c1ccc(Cl)c(Cl)c1)n1cccn1	4.2	2.2	0.4%	7.3%	14.3%	9.5	1.4%
CCCCn1c(N)c(N(CC(C)C)C(=O)c2cccc(OCc3ccccc3)c2)c(=O)[nH]c1=O	x	1.7	2.6%	u	x	5.3	2.0%
C=CCn1c(O)c(C2=c3ccccc3=NC2=O)c2ccccc21	-1.5	-37.7	x	-28.5%	44.7µM*	7.5	11.0%
COC(=O)CCN(C1CCCCC1)S(=O)(=O)c1ccc(S(=O)(=O)NC2CCCCC2)cc1	1.7	-27.9	-0.5%	3.0%	-1.7%	-4.1	-17.5%
OCCSc1nc(N2CCOCC2)nc(N2CCOCC2)n1	0.2	0.9	x	-4.9%[15.4 µM]	20.3%	-4.9	-32.6%
COc1ccc(F)cc1C(=O)C1CCCN(Cc2cccn2-c2cccnc2)C1 (stereo unspecified)	-0.2	-20.4	-4.6%	-1.3%	u	-11.4	-1.1%
C/C(=N\NC(=O)Cc1csc(N2CCOCC2)n1)c1ccc(Cl)c(Cl)c1	1.5	-5.4	1.0%	-18.0%[15.4 µM]	-10.0%	-5.6	-12.6%
COc1ccc(-c2csc(-c3cccs3)n2)cc1OC	0.3	-2.2	0.7%	0.4%[15.4 µM]	u	-0.6	2.2%
O=C(NCc1cccc(Cl)c1)C1=CC=CN2CCS(=O)(=O)N=C12	x	-2.6	4.6%	22.8%	x	6.4	5.2%
CCCS(=O)(=O)c1nc(S(=O)(=O)c2ccc(C)cc2)c(N2CCC(O)CC2)s1	x	-6.4	-1.7%	68.8%	7.5%	-2.1	-8.2%
Cn1c(=O)oc2cc(S(=O)(=O)NCCN3CCc4ccccc4C3)ccc21	16.6	-8.0	2.9%	-0.4%	8.0%	8.5	1.1%
COc1cccc(N(CC(=O)N2CCN(Cc3ccccc3)CC2)S(C)(=O)=O)c1	x	-9.4	0.8%	-30.7%[inhibitor]	x	x	x
COc1cccc(NC(=O)CN(C)CC(=O)NCc2ccco2)c1	x	-1.2	-2.4%	-40.9%[inhibitor]	x	-1.6	7.0%
Cc1ccccc1N1CCN(C2CCCN(C(=O)CCN3CCCCC3=O)C2)CC1 (stereo unspecified)	-1.2	-24.5	-6.4%	-27.4%	4.4%	0.9	7.8%
Cc1cccnc1NC(=O)c1ccc(S(=O)(=O)N2CC(C)OC(C)C2)cc1 (stereo unspecified)	-0.3	-2.8	x	4.7%	17.8%	7.6	8.1%
C=CCOc1ccc(CNc2nn[nH]n2)cc1	0.5	2.6	0.1%	-4.4%	11.7%	-5.5	-6.3%
Cc1cccc(Nc2ncc3c(n2)CC(c2ccco2)CC3=O)c1 (stereo unspecified)	3.8	-6.9	-2.3%	u	6.1%	-0.1	-4.4%
CC1CC(C)(C)CC2(C1)NC(=S)N(c1ccccc1)N2 (stereo unspecified)	3.8	-8.4	15.8µM*	3.3%	u	-3.2	2.1%
CC1CN(C(=O)CS(=O)(=O)Cc2ccc(Cl)cc2)CC(C)O1 (stereo unspecified)	0.0	-12.8	-0.9%	13.8%	14.9%	4.4	3.3%
COc1ccccc1-n1cc(C(=O)NCC(=O)N2CCN(c3ccccc3)CC2)c2ccccc2c1=O	0.8	-2.6	-12.6%	u	11.6%	0.3	5.3%
CCn1c(C)nnc1SCC(=O)Nc1nccs1	0.7	-7.9	x	7.8%[15.4 µM]	12.6%	-3.9	0.1%
O=C(Cn1cnc2c(oc3ccccc32)c1=O)NCCc1ccccc1	x	-8.4	-15.1%	-48.5%	x	x	1.9%
CC(C)(C)N(Cc1ccccc1)C(=O)CSc1nc2ccccc2c(=O)[nH]1	3.5	-2.3	0.0%	-6.5%	-1.8%	-3.7	-6.1%
CCOc1ccc(C(C(=O)NCC2CCCO2)N(C(=O)c2snc(C(N)=O)c2N)c2cccc(F)c2)cc1 (stereo unspecified)	1.9	5.4	x	-18.9%	15.1%	5.4	u
COc1ccc(C(=O)COC(=O)c2cc(S(=O)(=O)NCc3ccccc3)ccc2O)cc1	2.1	-39.4	0.9%	-7.5%[15.4 µM]	13.0%	1.3	u
CS(=O)(=O)Nc1ccc(C(=O)NC2CCCCC2)cc1	-1.5	-4.6	x	-14.2%[15.4 µM]	7.5%	1.1	9.8%
O=c1oc(=O)c2ccccc2c2ccccc12	x	-3.1	1.6%	-9.0%	x	x	-4.5%
Cc1ccc(S(=O)(=O)NCCNC(=O)c2ccc(C)nc2)cc1	4.3	-1.5	x	u	14.3%	-5.0	4.1%
CCC(C(=O)NCC1CCCO1)N(C(=O)CNS(=O)(=O)c1ccccc1)c1ccc(F)cc1 (stereo unspecified)	-4.1	-12.8	-0.1%	9.7%[15.4 µM]	8.3%	-3.5	-13.9%
CC1=C(OC(=O)C(C)(C)C)C(C)(C)C(c2ccccc2)OC1=O (stereo unspecified)	3.0	-0.7	-0.5%	10.9%	0.3%	-8.2	-8.7%
Cc1cc(C)n2c(Nc3ccc4c(c3)OCCO4)c(-c3ccc(C)o3)nc2n1	1.5	15.5	1.4%	8.8%	31.6µM*	-7.2	u

(cont.)
SMILES	Menin-MLL FL inh	D2 PAM	ClpP mod	gsp ag	Sfp PPTase inh	TRPV1 PAM	gsp antag
Cc1cccc(OCc2nnc(SCC(=O)N3CCCCC3)o2)c1	3.5	1.6	x	2.3%[15.4 µM]	3.5%	-15.0	-5.0%
O=C(NCCSCc1ccc(Cl)cc1)c1cccs1	2.4	-2.3	x	-1.8%	3.7%	-7.2	-8.4%
CCCCNC(=O)CSc1nnc(Cc2ccccc2)n1CC1CCCO1 (stereo unspecified)	0.1	-13.6	3.0%	-25.0%	14.2%	0.1	-2.0%
O=C1C=C(Nc2ccc(Cl)cc2)CC(c2ccccc2)C1 (stereo unspecified)	5.5	-11.4	1.1%	-1.0%[15.4 µM]	7.1%	-1.3	10.3%
CCN1C(=O)N(S(=O)(=O)C(F)(F)F)[C@@H](c2ccccc2)C(C(=O)OC)=C1C	0.4[11.7 µM]	-6.9	-2.3%	x	4.2%&11.0%	-14.4	-3.9%
O=c1c2c(ncn1CCO)nc1n2CCC1	-1.1	6.8	-1.0%	12.4%	8.6%	-0.4	22.0%
CC(C)c1c(O)nc(SCCN2CCOCC2)[nH]c1=O	1.6	-8.0	0.1%	-48.3%[inhibitor]	-7.7%	0.6	1.8%
O=C(COC(=O)c1cc(NS(=O)(=O)c2cccs2)ccc1O)Nc1ccccc1	4.5	-7.1	-2.6%	-1.6%	7.4%	u	-20.3%
CN(C)CCNC(=O)c1cccc(NS(=O)(=O)c2ccc(Cl)c(Cl)c2)c1	1.1	-29.6	-1.5%	-88.7%[inhibitor]	-20.6%	-1.6	3.4%
CCN(CC1COc2ccccc2O1)S(=O)(=O)c1ccc(C)cc1 (stereo unspecified)	2.8	-11.3	-9.7%	-14.1%	-1.3%	-1.1	-15.2%
COc1ccccc1Nc1cc2cc(Br)ccc2c(=O)[nH]1	x	-5.7	-4.7%	x	x	x	3.9%
CCn1nc(CCC(=O)O)c2ccccc2c1=O	5.8	5.0	-2.9%	4.7%	20.7%	16.9	9.3%
Cc1ccccc1NC(=O)c1ccc(F)c(S(=O)(=O)N2CCCCC2)c1	-7.4	4.1	-1.7%	u	16.1%	-1.1	4.5%
CC(C)NC(=O)C1CCN(C2CCN(C(=O)c3ccc4cccc(F)c4n3)CC2)CC1	1.3	-3.0	-3.9%	30.0%	5.8%	20.4	6.9%
